# Bioassay records from PubChem.
# Prx2 Sm inh = Schistosoma Mansoni Peroxiredoxins (Prx2); Schistosoma mansoni peroxiredoxin 2 (Prx2); S. mansoni Prx2 activity coupled to TGR/GSH (TGR is thioredoxin glutathione reductase), NADPH fluorescence loss, qHTS; some inactives read as strong as hits; Potency, µM; 0.07% of 65,000 active; AID 448, 2006; active means full or partial inhibition curve with a strong effect at the top dose; inconclusive means weaker partial or single-point curve; inactive means no accepted curve; also: series up to 57 µM; many of its hits are not listed in these tables
#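 qHTS, coupled TGR/Prx2 format; 15 min compound preincubation at RT; reaction started with H2O2 (2.5 mM aliquot); kinetic NADPH fluorescence decrease, ex 365/em 450 nm.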
# Anthrax LT inh = qHTS Assay for Anthrax Lethal Toxin Internalization; Potency, µM (doses to about 40 µM), for inactives: top-dose activity change, negative = inhibition, actives largely listed as inhibitors; Cells, anthrax lethal toxin internalization, FRET ratio (460/530); 0.67% of 70,000 active; active = well fitted falling ratio curve with the 530 nm signal flat; inconclusive = other ratio curves, or a change in one channel alone; inactive = flat curves in the ratio and both channels; the % refers to the ratio; also: % is scaled to controls: 0 for no effect and ±100 for the full control effect; nearly all actives have a fitted effect of over 50% in size; tested in ME-180 cells; beta-lactamase reporter
# Active calls of the source: *; i = inactive; ? = inconclusive; . = no result given; & = joins results of further samples; [ ] = another dose, or the depositor's remark. Potency is read from the fitted curve at half-maximal effect.
SMILES	Prx2 Sm inh	Anthrax LT inh
COc1ccc(S(=O)(=O)Cc2ccc(C(=O)NCCc3ccc(S(N)(=O)=O)cc3)o2)cc1	>57	-11%
COc1cccc(Nc2ncc3nc(-c4ccc(Cl)cc4)c(=O)n(C4CC4)c3n2)c1	i	?
N#Cc1cc(Sc2ccccn2)c(Sc2ccccn2)cc1C#N	.	-10%
CC(C)(C)NC(=O)Cn1c(=O)oc2cc(S(=O)(=O)N3CCc4ccccc43)ccc21	>57	-3%
Cn1c(-c2ccc(F)cc2)cnc1SCC(=O)N1CCCCC1	>57	-19%
O=C(CSc1nnc(-c2ccncc2)n1Cc1ccco1)c1ccc(Cl)cc1	>57	-3%
CSC1=NCCN1C(=O)c1c(-c2ccccc2Cl)noc1C	>57	1%
CN1CCN(c2nc3ccccc3nc2C(C#N)C(=O)OC2CCCCC2)CC1 (stereo not given)	>57	?
COCCNC(=O)Cn1cc2c(n1)CCC(C)C2 (stereo not given)	>57	4%
CC(=O)Nc1ccc(OC(=O)c2ccccc2N)cc1	.	-24%
COc1ccc(Br)cc1CNC(=O)C1CCN(S(=O)(=O)N2CCCCC2)CC1	>57	-18%
O=C(CSc1nnc(-c2ccc(Cl)cc2)n1Cc1ccco1)c1cccs1	>57	-29%
Cn1c(=O)c2[nH]c(-c3ccc(S(=O)(=O)O)cc3)nc2n(C)c1=O	>57	?
COC(=O)c1nnn(-c2nonc2N)c1CSc1nc2ccccc2s1	>57	-16%
CCCCN(C)c1nc(-c2ccco2)c2c(c1C#N)CC(C)(C)OC2	>57	?
CC(=O)c1ccc(N2CCN(C(=O)COc3ccc(F)cc3)CC2)c(F)c1	>57	-18%
CC1CCCN(Cc2nc3c(c(=O)n(C)c(=O)n3C)n2CC(N)=O)C1 (stereo not given)	>57	6%
O=C(Cn1ncn2c(cc3ccccc32)c1=O)NCc1ccco1	>57	1%
Cc1nc2sccn2c(=O)c1CCN1CCC(=C(c2ccc(F)cc2)c2ccc(F)cc2)CC1	>57	?
Cc1cccc2cc(CN(Cc3ccco3)C(c3nnnn3CCc3ccccc3)C(C)C)c(=O)[nH]c12 (stereo not given)	>57	-12%
COc1cc2c(cc1OC)[C@]13CCN4CC5=CCO[C@@H]6CC(=O)N2[C@@H]1[C@H]6[C@@H]5C[C@H]43	>57	?
Cc1nc2scc(-c3cccs3)c2c(=O)n1-n1cccc1	.	-12%
c1coc(-c2nnc(NC3=NCCC3)o2)c1	>57	2%
CN=C(Nc1cc(C)nn1CCC#N)c1ccccc1F	>57	0%
Oc1c(/C=N/c2ncn[nH]2)ccc2ccccc12	.	-22%
CNC(=O)CSc1nnc(-c2ccncc2)n1Cc1ccccc1	>57	-3%
CCOC(=O)N1CCC(Nc2cccc(SC)c2)CC1	.	?
Cc1ccc2nc(NC3=NCN(CCc4ccccc4)CN3)nc(C)c2c1	>57	?
CCN(CC(=O)Nc1ccc2c(c1)OCCO2)C(=O)C1CCCCC1	>57	?
O=C(c1cnn2c1NC(c1ccco1)CC2C(F)(F)F)N1CCN(c2cccc(Cl)c2)CC1 (stereo not given)	>57	-25%
O=C(CCN1C(=O)C2C3C=CC(C3)C2C1=O)N1CC(=O)N(CCc2ccccc2)C(=O)C1 (stereo not given)	>57	3%
Cc1ccccc1-c1nc(CS(=O)(=O)CC(=O)N2CCc3ccccc32)c(C)o1	>57	-7%
COc1ccccc1NC(=O)CN1CCN(c2ccccc2F)CC1	>57	7%
COc1ccc(C2(CNC(=O)CCC(=O)O)CCCC2)cc1	>57	-20%
COc1ccc(C(=O)N(CC(=O)NC(C)(C)C)c2ccc3c(c2)OCCO3)cc1OC	>57	5%
N#CC1(c2nc3ccccc3[nH]2)CC1c1ccc2c(c1)OCO2 (stereo not given)	>57	-7%
CC(=O)Nc1ccc(S(=O)(=O)n2nc(-c3ccc(C)cc3)nc2N)cc1	>57	-27%
Cc1cc(=O)[nH]c(SCCOc2ccc(OC(C)C)cc2)n1	>57	11%
CCN1C[C@@]2(COC(=O)c3ccccc3N3C(=O)C[C@H](C)C3=O)CC[C@H](OC)[C@@]34[C@@H]5CC6[C@@H](OC)C[C@@](O)([C@H]5[C@H]6OC)C(O)([C@@H]13)[C@@H](OC)[C@H]24	>57	?
O=c1c2c3c(sc2nc2n1CCC2)CCC3	>57	-3%
CCOC(=O)C1CCN(c2c(NCCN3CCCCC3C)c(=O)c2=O)CC1 (stereo not given)	>57	2%
COc1ccc(CNc2ccc(S(N)(=O)=O)cc2)c(OC)c1OC	>57	-10%
CC(C)NS(=O)(=O)c1ccc(CCC(=O)O)cc1	>57	-3%
CN1CCN(C(=O)c2ccc(N(Cc3ccc(Cl)cc3)S(C)(=O)=O)cc2)CC1	>57	-19%
CCCn1c(N)c(C(=O)CSc2nc3ccccc3n2CCC#N)c(=O)n(C)c1=O	>57	20%
O=C(c1ccccc1F)N1CCN(S(=O)(=O)c2ccc3c(c2)OCCO3)CC1	>57	?
COC(=O)C1=C(C)N(Cc2ccccc2)[C@]23O[C@](C(=O)OC)(C(=O)N2C1c1ccccc1)C1CCCC(=O)C13 (stereo not given in full)	.	-5%&-10%[8 µM]
O=C(OCc1nc2ccccc2s1)C1CCN(C2=NS(=O)(=O)c3ccccc32)CC1	>57	2%
O=S(=O)(NC1CC1)c1ccc(S(=O)(=O)N2CCCC(c3nc(-c4cccnc4)no3)C2)cc1 (stereo not given)	>57	-29%
O=C(O)c1cc(Cl)c2ccccc2c1O	>57	-19%
CCn1c(SCC(=O)Nc2ccc3c(c2)OCO3)nnc1-c1ccccc1O	>57	-4%
O=c1c2ccccc2nc(-c2ccco2)n1-c1ccc(Br)cn1	>57	?
CCCCCCN(C(=O)CCCCCN1C(=O)NC(c2ccc3ccccc3c2)C(C(=O)OCc2ccccc2)=C1C)C(C(=O)NCCCC)c1ccc(OCC(=O)OC)c(C(=O)OC)c1 (stereo not given)	.	?
CCCCOc1ccc(NC(=O)Cn2c(=O)ccc3c(C)cc(C)nc32)cc1	>57	2%
CC12CNCC(C)(CNC1)C2O (stereo not given)	.	5%
O=C(Nc1nnc(COc2ccc(Cl)cc2)s1)c1cccs1	>57	11%
CCCCn1c(O)c(C(CC)=Nc2ccc3c(c2)CCC3)c(=O)[nH]c1=O	>57	-28%
CCOC(=O)c1c(-c2ccc(C)o2)csc1NC(=O)CSc1nncs1	>57	-10%
CCC(=O)Nc1cccc(-n2nnnc2SCC(=O)NCc2ccco2)c1	>57	-10%
Cc1cc(C(=O)NC2=NCCS2)cs1	>57	4%

# (list continues)
SMILES	Prx2 Sm inh	Anthrax LT inh
Cc1c(NC(=O)NC(C)N2C(=O)C3C4C=CC(C4)C3C2=O)c(=O)n(-c2ccccc2)n1C (stereo not given)	>57	-10%
N[C@H](C(=O)O)c1nn[nH]n1	>57	-9%
O=C(O)C1CCCCC1C(=O)NCCc1ccncc1 (stereo not given)	>57	2%
COc1ccc(N=C2SC(CC(=O)Nc3ccccc3)C(=O)N2CC2CCCO2)cc1 (stereo not given)	>57	5%
Cc1nc(NCc2ccccc2)c2nc(-c3ccccc3)n(C3CCN(Cc4ccccc4)C3)c2n1 (stereo not given)	.	?
CSCCC(NC(=O)c1ccco1)C(=O)O (stereo not given)	>57	-10%
Cn1c(C(=O)Nc2ccc3c(c2)OCCO3)cc2c(=O)n(C)c3ccccc3c21	>57	?
Cc1ccc(NC(=O)CN2CCCCCC2)c(Br)c1	>57	?
C/C(CCC(=O)OC[C@@H]1O[C@H](C#Cc2ccccc2)C=C[C@@H]1Oc1ccc(C)cc1)=N/O[C@@H](C)c1cn([C@H]2COC[C@H]2O)nn1	.	-7%[8 µM]
COc1ccc(CC(=O)Nc2nc(C)cs2)cc1OC	>57	0%
CCCCc1nccn1CCn1ccnc1CCCC	>57	-11%
COc1ccc(NC(=O)CN2CCN(c3ccc(F)cc3)CC2)cc1Cl	>57	-9%
COC(=O)[C@@H](NC(=O)NCc1cccc(OC)c1)C(C)C	>57	-4%
Cn1c(SCC(=O)Nc2ccc3c(c2)OCO3)nnc1-c1cnccn1	>57	3%
CC(=O)N1CCN(Cc2nc3cc(NS(C)(=O)=O)ccc3n2C)CC1	>57	-13%
COc1ccc(Oc2ncc3ncc(=O)n(C4CC4)c3n2)cc1	>57	-8%
O=C(Nc1ccc(N2CCN(C(=O)c3ccco3)CC2)c(Cl)c1)c1cc2ccccc2o1	>57	?
O=C(Nc1ccc2c(c1)OCO2)c1ccccc1SCC(=O)N1CCCC1	>57	-20%
COC(=O)CN1C(=O)C2(C(C#N)=C(N)Oc3cc(C)oc(=O)c32)c2ccccc21 (stereo not given)	>57	14%
COc1ccc(Cl)cc1NC(=O)CN(C(=O)c1ccco1)C1CCCCC1	>57	-6%
CCCN(CCC)CCNC(=O)c1cc2c(C)nc3ccccc3c2o1	>57	?
Cn1c(CSc2nnc(SCc3ccccc3)s2)nc2ccccc21	>57	-17%
O=C1c2ccccc2C(=O)N1CCCC(=O)N1CCCc2ccccc21	>57	-9%
COc1cccc(NC(=O)c2nnn(Cc3ccc(Br)cc3F)c2N)c1	>57	?
CCOC(=O)[C@]1(CC(=O)O)CCCC1=O	>57	6%[8 µM]
CCCCNC(=O)CSc1nc2cc3c(cc2c(=O)n1CCCN(CC)CC)OCO3	>57	?
CCS(=O)(=O)N1Cc2ccccc2CC1C(=O)N1CCN(c2cccc(C)c2C)CC1 (stereo not given)	>57	-11%
CCN1/C(=C/C(=O)c2ccco2)Sc2ccccc21	>57	?
Cc1[nH]c(=O)c(C#N)c(C)c1Br	>57	?
Cn1c(=S)c2[nH]c(SCCN3C(=O)c4ccccc4C3=O)nc2n(C)c1=O	>57	1%[8 µM]
COc1cc(C)c(S(=O)(=O)NCc2ccc3c(c2)OCO3)cc1C	>57	?
CCn1cc(C(=O)OCC(=O)Nc2ccc(S(=O)(=O)N3CCCC3)cc2)c(=O)c2ccc(C)nc21	>57	-3%
COCCNC(=O)NC(=O)COC(=O)Cc1ccc2c(c1)OCCO2	>57	5%
NC(=O)CSc1nnc(Cc2ccc3c(c2)OCO3)n1C1CCCCC1	>57	1%
O=C(O)[C@H]1CCCN(CCC=C(c2ccccc2)c2ccccc2)C1	>11&>57	?
N#CCCN1CCN(Cn2c3ccccc3c3ccccc32)CC1	>57	-13%
COc1cc(OC)c(C2N(c3ccc(Cl)c(Cl)c3)C(=O)C3CCCN32)cc1OC (stereo not given)	>57	-7%
CCC(C)(C(=O)NC1CCCC1)N(C(=O)c1cnccn1)c1ccccc1 (stereo not given)	>57	-7%
CCNc1ncc2nc(-c3cc(F)cc(F)c3)c(=O)n(C[C@H]3CCCO3)c2n1	>57	?
CN(C)CCNC(=O)Cn1nc(C(F)F)cc1C1CC1	>57	23%

# Whole records as entered above. Values in the order: Prx2 Sm inh | Anthrax LT inh
# CCn1cc(C(=O)OCC(=O)Nc2ccc(S(=O)(=O)N3CCCC3)cc2)c(=O)c2ccc(C)nc21 in the list: >57 | -3%
# CCC(C)(C(=O)NC1CCCC1)N(C(=O)c1cnccn1)c1ccccc1 (stereo not given) in the list: >57 | -7%

# (further entries)
SMILES	Prx2 Sm inh	Anthrax LT inh
Cc1ccc(N(CC(=O)Nc2cccc(C)c2)S(=O)(=O)c2cccc3nonc23)cc1	>57	-7%
COC(=O)c1ccc(Cn2cnc3ccccc3c2=O)cc1	>57	10%
Cc1cccc(CNc2ccnc(-c3ccccc3CN(C)C)n2)c1	>57	-20%
O=C(Nc1cccc(F)c1)N1CCCC2(CCN(C(=O)c3csnn3)CC2)C1	>57	5%
CCOc1ccccc1N(CC(=O)NC(C)(C)C)C(=O)Cn1nnc(-c2ccc(C)o2)n1	>57	2%
O=C(Nc1nnc(CC(=O)N2CCOCC2)s1)c1cccs1	>57	6%
CCC(c1nnnn1CCc1ccccc1)N(Cc1ccco1)Cc1cc2cccc(C)c2[nH]c1=O (stereo not given)	>57	-5%
C=CCOc1cccc(C2/C(=C(\O)c3ccc(F)cc3)C(=O)C(=O)N2CCN(C)C)c1 (stereo not given)	>57	.
Cc1ccc(CNc2ncc(-c3ccc4c(c3)OCO4)n2C)cc1	>57	?
O=C(Cl)C(Cl)(Cl)Cl	.	5%
Cc1nc2cnc(N3CCOCC3)nc2n(Cc2ccc(F)cc2)c1=O	>57	-1%

# Part of the list above, with values under each structure.
# Order of results – Prx2 Sm inh, Anthrax LT inh
O=C(Nc1nnc(CC(=O)N2CCOCC2)s1)c1cccs1
→ >57, 6%
CCC(c1nnnn1CCc1ccccc1)N(Cc1ccco1)Cc1cc2cccc(C)c2[nH]c1=O (stereo not given)
→ >57, -5%
C=CCOc1cccc(C2/C(=C(\O)c3ccc(F)cc3)C(=O)C(=O)N2CCN(C)C)c1 (stereo not given)
→ >57, .
Cc1ccc(CNc2ncc(-c3ccc4c(c3)OCO4)n2C)cc1
→ >57, ?
O=C(Cl)C(Cl)(Cl)Cl
→ ., 5%

# The list is partial; count on the stated rates, not on these rows.
